PK Bst: modulators of Bacillus stearothermophilus pyruvate kinase | partly purified Bacillus stearothermophilus pyruvate kinase, luminescence ATP production; ribose 5-phosphate activator present at AC10 | Potency, µM | actives 1.2% (n = 51,000); in the data active means potency below about 11 µM; inconclusive means mostly about 12 µM to 25 µM; inactive means weaker than that;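 the screen sought inhibitors and activators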;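 note: potency is the fitted concentration of half-maximal effect; scaled between full activation by ribose 5 phosphate and full inhibition by luteolin; about four in five hits inhibit and the cells do not say which; series up to 57 µM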
TsaE inh: YjeE (TsaE) inhibition, E. coli. P0AF67. actives 0.05% (n = 71,000). purified YjeE, fluorescence polarisation of a bound ADP probe. Potency, µM; active = well fitted falling curve; inconclusive = weaker or top-dose-only fall, or a rising curve; inactive = flat or poorly fitted curve;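 note: top concentration of the series not given in the record; excess ADP was the control for the full effect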
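Fluorescence polarization of a BODIPY Texas Red–ADP probe (2 uM) bound to purified YjeE (10 uM) was read after 15 min room-temperature incubation with compounds. Loss of polarization marks inhibitors; ADP serves as titrated control.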
Starred values were filed as active, the others as inactive; i = inactive; ? = inconclusive; nt = no result given.

Sample of the layout, 15 compounds:
SMILES	PK Bst	TsaE inh
CC(C)Cc1nc(NCCN2CCOCC2)c(C#N)c2c1COC(C)(C)C2	>26	nt
CCN(CC)C(=O)CSC1=C(C#N)C(c2ccco2)C(C(=O)OCCOC)=C(C)N1 (stereo not given)	>26	nt
COC(=O)c1ccc(C2/C(=C(/O)c3ccc(OC)cc3)C(=O)C(=O)N2Cc2ccco2)cc1 (stereo not given)	>26	nt
CC1CC(C)CN(Cc2nc(N)nc(Nc3ccc4ccccc4c3)n2)C1 (stereo not given)	>57	i
COc1ccc(NC(=O)C2CCCN(S(=O)(=O)c3cccnc3)C2)cc1 (stereo not given)	>57	i
COc1ccc(CCNS(=O)(=O)c2ccc(F)cc2)cc1OC	>57	i
CCOC(=O)CCCn1nc(C)n2c(cc3sccc32)c1=O	nt	i
COc1cc(NCCCC(C)N)c2ncccc2c1 (stereo not given)	>57	i
O=C1CCCc2c1cc(C(=O)Nc1ccc(Br)cn1)c(=O)n2-c1ccccc1	>57	i
O=C(O)COc1c(F)c(F)c(C(F)(F)F)c(F)c1F	nt	i
COC(=O)C1C(=O)c2c([nH]c(C(=O)OC3CCCCC3)c2C)CC1C (stereo not given)	nt	i
CCCCOC(=O)Nc1ccccc1C(=O)N1CCCC1	nt	i
Cn1c(SCC2CCCO2)nnc1-c1ccncc1 (stereo not given)	>57	i
C=C(C)[C@H]1CC[C@]2(CO)CC[C@]3(C)[C@@H](CC[C@H]4[C@@]5(C)CC[C@@H](O)C(C)(C)[C@@H]5CC[C@@]43C)[C@H]12	nt	i
O=C(c1ccccc1C(=O)N1CCN(c2ccccc2)CC1)N1CCN(c2ccccc2)CC1	>57	i

Results, previewed entries included:
SMILES	PK Bst	TsaE inh
CC(C)Cc1nc(NCCN2CCOCC2)c(C#N)c2c1COC(C)(C)C2	>26	nt
CCN(CC)C(=O)CSC1=C(C#N)C(c2ccco2)C(C(=O)OCCOC)=C(C)N1 (stereo not given)	>26	nt
COC(=O)c1ccc(C2/C(=C(/O)c3ccc(OC)cc3)C(=O)C(=O)N2Cc2ccco2)cc1 (stereo not given)	>26	nt
CC1CC(C)CN(Cc2nc(N)nc(Nc3ccc4ccccc4c3)n2)C1 (stereo not given)	>57	i
COc1ccc(NC(=O)C2CCCN(S(=O)(=O)c3cccnc3)C2)cc1 (stereo not given)	>57	i
COc1ccc(CCNS(=O)(=O)c2ccc(F)cc2)cc1OC	>57	i
CCOC(=O)CCCn1nc(C)n2c(cc3sccc32)c1=O	nt	i
COc1cc(NCCCC(C)N)c2ncccc2c1 (stereo not given)	>57	i
O=C1CCCc2c1cc(C(=O)Nc1ccc(Br)cn1)c(=O)n2-c1ccccc1	>57	i
O=C(O)COc1c(F)c(F)c(C(F)(F)F)c(F)c1F	nt	i
COC(=O)C1C(=O)c2c([nH]c(C(=O)OC3CCCCC3)c2C)CC1C (stereo not given)	nt	i
CCCCOC(=O)Nc1ccccc1C(=O)N1CCCC1	nt	i
Cn1c(SCC2CCCO2)nnc1-c1ccncc1 (stereo not given)	>57	i
C=C(C)[C@H]1CC[C@]2(CO)CC[C@]3(C)[C@@H](CC[C@H]4[C@@]5(C)CC[C@@H](O)C(C)(C)[C@@H]5CC[C@@]43C)[C@H]12	nt	i
O=C(c1ccccc1C(=O)N1CCN(c2ccccc2)CC1)N1CCN(c2ccccc2)CC1	>57	i
COc1ccc(-c2nnc(SCC(=O)NC(C)c3ccccc3)o2)cc1OC (stereo not given)	nt	i
CC(=O)c1cccc(NS(=O)(=O)c2ccc3c(c2)oc(=O)n3C)c1	>57	i
CN(C)C[C@H]1CCC[C@@H](CN(C)C)C1=O	nt	i
Cc1ccc(S(=O)(=O)c2cc3c(=O)n4ccccc4nc3n(Cc3ccco3)c2=N)cc1C	>57	i
COCCn1c(=O)c(-c2ccc(F)c(F)c2)nc2cncnc21	nt	i
CCc1nnc(NC(=O)CSc2nc3c(c(=O)n2CC)SC(C)C3)s1 (stereo not given)	nt	i
COc1ccc2[nH]c(C)c(CN3CCC(C)CC3)c(=O)c2c1	nt	i
Cc1onc(-c2ccccc2Cl)c1C(=O)Nc1ccc(S(=O)(=O)N2CCCC2)cc1	nt	i
CC(=O)CN1Cc2ccccc2/C1=N\C(=O)Nc1ccccc1	>57	i
CCCn1c(SCC(=O)Nc2c(C)cccc2CC)nnc1C(C)C	>57	i
CN(C)CCCO[C@H]1[C@H]([C@H](O)CO)O[C@H]2OC(C)(C)O[C@@H]21	nt	i
CCOc1ccc2nc(COC(=O)c3ccco3)c(C(C)=O)[n+]([O-])c2c1	>57	i
C[C@H](NC(=O)[C@@H]1C[C@H]1[C@@H](NC(=O)OCc1ccccc1)c1ccccc1)c1ccccc1	nt	i
O=C(CSc1nnc(-c2ccccc2Br)o1)N1CCN(C(=O)c2ccco2)CC1	>57	i
Cc1nc(SCn2nnc3ccccc3c2=O)c2c(C)c(C)sc2n1	>57	i
CC1(C)c2ccccc2N2CC(=O)NC21/C=C/c1ccco1 (stereo not given)	>57	i
O=C(c1ccccc1)[C@@H]1O[C@H]1c1ccc(-c2ccccc2)cc1	nt	i
O=C1CC(N(O)C2CC(=O)N(Cc3ccccc3)C2=O)C(=O)N1Cc1ccccc1 (stereo not given)	>26	nt
CC(=O)COc1ccc2c3c(c(=O)oc2c1C)CCCCC3	>57	i
CCCCC(NC(C)=O)c1nc2ccccc2n1CCCC (stereo not given)	>57	i
COc1cc(-c2n[nH]c(=O)o2)cc(OC)c1OC	>57	i
Cn1nc(-c2ccc(Cl)cc2)c2cc(C(=O)N3CCN(c4ccccn4)CC3)sc21	nt	i
CCN1CCCC1CNC(=O)CSc1cc(=O)n(CC)c2ccccc12 (stereo not given)	>57	i
COc1ncc2ncc(=O)n(CCc3ccccc3)c2n1	nt	i
C=CCc1cccc(/C=N/n2cnnc2)c1O	>26	nt
CCOC(=O)c1oc2cc(O)ccc2c(=O)c1-c1ccccc1OC	nt	i
CCOc1cc(NS(=O)(=O)CC)c(OCC)cc1NC(=O)c1ccco1	>57	i
Cc1cc(C)n2c(=S)[nH]nc2n1	>57	i
CC(=O)OC1C(OC(C)=O)N(C(C)=O)C(=O)N1C(C)=O (stereo not given)	>57	i
OC(COc1ccc2ccccc2c1)Cn1ccnc1 (stereo not given)	>57	i
O=C(Nc1ccc(Cl)cc1C(=O)Nc1ccncc1)c1ccco1	nt	i
Cn1c(NCC(O)c2ccccc2)nc2c1c(=O)n(Cc1ccc(Cl)c(Cl)c1)c(=O)n2C (stereo not given)	?	nt
CCn1c(CSc2nc(C)cc(C)n2)nnc1SCC(=O)Nc1nc(-c2ccccc2)cs1	>57	i
CCOc1ccc(NC(=O)CN2CCN(CC(=O)c3ccc(OCC)cc3)CC2)cc1	>57	i
CCCCn1c(SCC(=O)NCc2ccco2)nc2ccc(N3CCOCC3)cc2c1=O	>57	i
Cn1c(=O)c2[nH]c([C@@H]3CC(=O)C[C@H](c4nc5c([nH]4)c(=O)n(C)c(=O)n5C)N3)nc2n(C)c1=O	nt	i
Cn1c(=O)c(-c2ccc(F)c(F)c2)nc2cncnc21	nt	i
CCCc1c(OCCCOc2ccc(OCC(=O)O)cc2)ccc(C(C)=O)c1O	nt	i
COc1ccc(NC(=O)CN(C2CCCCC2)S(C)(=O)=O)cc1OC	>57	i
COCCOC(=O)c1c(C)n(C)c2ccc(OC(=O)C3CC3)cc12	i	i
CCCn1c(N)c(Sc2ccc(Cl)cc2)c(=O)n(CCC)c1=O	>57	i
Cc1oc(-c2ccccc2F)nc1CS(=O)(=O)CC(=O)NC1CCCC1	nt	i
COCCNC(=O)c1ccc2c(c1)NC(=O)CS2	>57	i
Brc1ccc(-c2noc(CCc3ccccc3)n2)o1	nt	i
CCOC(=O)c1ccc(-c2ccc(C(=O)Nc3cccnc3)o2)cc1	nt	i
Additional records.
SMILES	PK Bst	TsaE inh
Cn1c(SCC(=O)Nc2ccc3cn[nH]c3c2)nnc1-c1cccs1	>57	i
COc1cccc(C2C(C#N)=C(N)Oc3cc(C)n(Cc4ccco4)c(=O)c32)c1 (stereo not given)	>57	i
CCCc1cc(=O)[nH]c(SCC(=O)N(C)CC(=O)Nc2ccc(C)cc2)n1	>57	i
COc1ccc(N2CCN(CCNC(=O)c3cccn4c(=O)c5ccc(Cl)cc5nc34)CC2)cc1	>57	i
Cc1cc(C)nc(NC2=NCC(=O)N2c2ccccc2Br)n1	nt	i
CC(C)Cc1nc(N2CCN(C(=O)Cc3ccccc3)CC2)c(C#N)c2c1COC(C)(C)C2	>11	nt
Cc1nonc1OCCNC(=O)C12CC3CC(CC(C3)C1)C2	>57	i
O=C(Nc1ccccc1)Nc1cccc2cccnc12	nt	i
COc1ccc2cc(C(=O)Nc3c(C)n(C)n(-c4ccccc4)c3=O)sc(=O)c2c1OC	nt	i
Cc1ccc(S(=O)(=O)Nc2ccc(-c3nnc(SCC#N)n3C)cc2)cc1	>57	i
COc1ccc2nc(NC(=O)CCc3nc(-c4ccccc4F)no3)sc2c1	>57	i
CC(=O)Nc1cccc(NC(=O)CSc2nnnn2C)c1	>57	i
O=C(Cn1ccc2ccccc2c1=O)NCCC(=O)Nc1ccc2c(c1)OCCO2	>57	i
Cc1csc(SCC(=O)Nc2nc(-c3ccccc3)cs2)n1	>57	i
COc1cccc2[nH]c3c(N4CCCCC4)ncnc3c12	nt	i
O=C(Cc1ccccc1)NC1CCN(S(=O)(=O)c2cccc(F)c2)CC1	>57	i
CN(C)C(=O)CCc1nc(-c2ccc(C(C)(C)C)cc2)no1	>57	i
CCOc1ccc(-c2nc(-c3ccc(OC)cc3)no2)cc1OCC	>57	i
CCCCC[C@H](CC(=O)NO)C(=O)N[C@@H](C(=O)N1CCC[C@H]1CO)C(C)C	nt	i
O=C(O)C1CCCN1S(=O)(=O)c1ccc(Br)s1 (stereo not given) (tested in a mixture with another compound)	>57	i
CC(C)(C)C(=O)Nc1ccccc1C(=O)NCc1ccco1	nt	i
CC(CN1CCCCC1)OC(=O)c1cc2ccccc2o1 (stereo not given)	>57	i
CC(=O)N1CCN(c2ccc(NC(=O)c3ccccc3Br)cc2Cl)CC1	>57	i
Cc1ccc(-n2ncc3c(NCc4ccccn4)ncnc32)c(C)c1	>57	i
CCN(CC)S(=O)(=O)c1ccc(-c2nnc(SCC(=O)N3CCc4ccccc43)o2)cc1	>57	i
COC(=O)c1ccc(CNC(=O)CSc2nnc(COc3ccccc3)n2C)o1	>57	i
Cn1nc(-c2ccc(Cl)cc2)c2cc(C(=O)N3CCC(N4CCCCC4)CC3)sc21	nt	i
CSc1nnc(CNC(=O)c2ccccc2)n1-c1cccc(C)c1	nt	i
COc1ccc(C)cc1S(=O)(=O)N(CC(N)=O)Cc1ccccc1	>57	i
C=CCOc1ccccc1/C=N/O	>57	i
CCOC(=O)c1nc2sc3c(c2c(=O)[nH]1)CCCC3	nt	i
Cc1ccc(C(=O)N(CN2CCCC2=O)c2ccc(F)cc2)cc1	>57	i
COc1ccc(OC)c(NC(=O)C2CCN(c3cc(-c4ccccc4)nc4ncnn34)CC2)c1	nt	i
Cc1cccc(CN2CCN(CC(=O)NCCCN3CCCC3=O)C2=O)c1	>57	i
CCc1ccc2[nH]cc(C(=O)N3CCCCCC3)c(=O)c2c1	>57	i
CCOC(=O)C(NC(C)=O)(NS(=O)(=O)c1ccccc1)C(F)(F)F (stereo not given)	>57	i
CCOC(=O)CCCNC(=O)COC(=O)CCC(=O)c1ccc(F)cc1	>57	i
COc1ccccc1N1CCN(C(=O)CCNS(=O)(=O)c2ccc3c(c2)CCC(=O)N3)CC1	>57	i
O=CC(=O)c1ccccc1	nt	i
Cc1cc(C)c2c(n1)nn1c(NCCCn3ccnc3)cc(C)nc21	>57	i
NC[C@@H]1O[C@H](O[C@H]2[C@H](O)[C@@H](O[C@H]3[C@H](O)[C@H](N)C[C@H](N)[C@H]3O[C@@H]3O[C@H](CO)[C@@H](O)[C@H](O)[C@@H]3N)O[C@H]2CO)[C@@H](N)[C@H](O)[C@@H]1O	nt	i
COc1ccccc1NC(=O)c1cc2n(n1)C(C(F)(F)F)CC(c1ccc3c(c1)OCO3)N2 (stereo not given)	>57	i
O=C1CC(N(O)c2ccccc2)C(=O)N1c1cc(Cl)cc(Cl)c1 (stereo not given)	>57	i
COc1ccc(-c2nnc(SCC(=O)c3ccco3)n2-c2ccccc2)cc1	>57	i
COc1ccccc1CNS(=O)(=O)c1c(C)noc1C	>57	i
CCC(=O)N1CCc2cc(Br)cc(S(=O)(=O)NCc3ccco3)c21	>57	i
Cn1c(=O)cc(SCC(=O)NCc2ccco2)c2ccccc21	>57	i
CC(C)CN1CCCC2(CCN(C(=O)c3cccn3C)CC2)C1	nt	i
CC(Cc1ccccc1)C(=O)N[C@@H](CO)Cc1ccccc1 (stereo not given in full)	nt	i
O=C1c2cccc3c(Cl)ccc(c23)C(=O)N1O	5.1*	i
N#Cc1ccccc1CSc1nc(N2CCCCC2)nc(N2CCCCC2)n1	>57	i
CC1CCN(C(=O)c2ccc(C(=O)N3CCC(C)CC3)cc2)CC1	>57	i
C[C@@H](C(=O)O)[C@@H]1C[C@@]1(C)[C@@H](NC(=O)OCc1ccccc1)c1ccccc1	nt	i
COc1ccccc1-c1cc(C(=O)N2CCc3ccccc3C2)no1	nt	i
O=C(O)c1cccc2c1C(=O)N(Cc1ccncc1)C2	>57	i
O=C(Nc1ccc(Cl)cc1C(=O)N1CCOCC1)c1ccco1	>57	i
COc1ccccc1N1CCN(C(=O)CSc2nc3ncnc(N)c3[nH]2)CC1	>57	i
COc1ccc(OC)c2[nH]c(=O)c(CCNC(C)=O)cc12	nt	i
CN(C)c1ncc2nc(-c3cc(F)cc(F)c3)c(=O)n(C[C@H]3CCCO3)c2n1	nt	i
Cc1cc(=O)[nH]c(-n2nc(C)c(Oc3ccccc3O)c2C)n1	nt	i
CCc1nnc(NC(=O)c2c(O)c3cccc4c3n(c2=O)CC4)s1	>57	i

The list is partial (hit frequency here may not be typical).
